T cruzi repl: T. cruzi replication inhibition; AID 1885; inhibition, % (no concentration beside the values); 300,000 compounds, 1.4% hits; T. cruzi beta-gal in NIH3T3, luminescence, 90 h;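 active = mean inhibition across valid replicates above about 55%, limit read from the data; inconclusive = mean below that limit but half or more replicates reach it; inactive = mean below it, under half of replicates reach it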;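 note: signal also drops with host cell toxicity which is not excluded here; 0% = plate median of DMSO wells and 100% = zero luminescence signal; higher percent means less beta-gal luminescence so fewer parasites; stock transfer was 50 nL into about 50 µL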
ALR H2O2 inh: human ALR oxidase inhibition via reduced H2O2. P55789. purified ALR, DTT oxidation, H2O2 HRP-luminol luminescence. inhibition, % (concentration not given with the values). 290,000 compounds, 3.8% hits. AID 485317;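 active = mean and each replicate at 75% or more; inconclusive = only one of the two met; inactive = neither met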;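 note: stock transfer was 7.5 nL into about 7.5 µL; 0% = neutral wells and 100% = wells with inactivated enzyme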
Target sequence (P55789 whole entry, looked up): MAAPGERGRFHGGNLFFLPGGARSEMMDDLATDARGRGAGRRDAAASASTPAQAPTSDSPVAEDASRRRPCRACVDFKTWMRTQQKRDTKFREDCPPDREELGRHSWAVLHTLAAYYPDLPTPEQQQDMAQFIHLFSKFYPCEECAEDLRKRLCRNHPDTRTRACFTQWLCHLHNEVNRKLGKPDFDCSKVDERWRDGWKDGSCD
RanGTP-Imp inh: inhibitors of RanGTP-importin-beta interaction, primary screen, biochemical, FRET, CFP-Ran, YFP-importin-beta, homogeneous; 300,000 compounds, 1.1% hits; cell-free CFP-Ran/YFP-importin-beta FRET ratio; inhibition, % (no concentration beside the values);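 active = most replicates above 15%; inconclusive = exactly half above 15%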;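 note: 0% = DMSO wells and 100% = Ran loaded with GDP instead of GTP; wells of about 40 µL received 100 nL stock; the first replicate is given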
Ecoli rRNA inh: inhibits bacterial ribosomal RNA function over humanized ribosomes; AID 720706; GFP signal change (wild-type ribosome), % (test concentration not listed); E. coli WT GFP vs humanized-ribosome RFP mutants, fluorescence, 24 h; stronger effect = lower value; DMSO median 0, no signal -100; 350,000 compounds, 1.6% hits;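 active = significant combined selectivity score with lowered wild-type GFP, culture density cut under 30%, mutant RFP and density less affected; inactive = any of these conditions unmet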; note: one replicate is shown; some compounds called inactive have numbers as strong as hits
FGF22 binding: binders of recombinant human FGF22 by thermal shift | Q9HCT0 | SYPRO orange fluorescence; percent of sucrose octasulfate shift, DMSO zero | calls only at 9.99 µM | 340,000 compounds, 1.5% hits | AID 651658;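 active = melting point raised past a set limit in the mean and every replicate; inconclusive = no clear call; three in four hits are not shown here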
Target sequence (Q9HCT0 whole entry, looked up): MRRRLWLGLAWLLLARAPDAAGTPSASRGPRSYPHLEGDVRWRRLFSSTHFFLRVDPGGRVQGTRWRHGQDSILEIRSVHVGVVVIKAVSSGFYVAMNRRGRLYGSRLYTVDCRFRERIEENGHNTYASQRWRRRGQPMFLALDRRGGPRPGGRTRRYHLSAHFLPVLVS
Beta apoptosis: blocks beta cell apoptosis; INS-1E cytokine-induced death, ATP luminescence, 48 h; percent of positive-control rescue, neutral wells zero; protection from apoptosis, % (test concentration not listed); 300,000 compounds, 0.8% hits; AID 435005;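 active = all replicates at 75% or more, or half of them and the mean; inconclusive = half reach 75% but not the mean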;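 note: 0% = cytokine-treated negative control wells and 100% = positive control rescue; higher means more ATP so stronger rescue from cytokine killing; wells of about 40 µL received 100 nL stock; the first replicate is given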
AF4-AF9 inh: blocks AF4 peptide binding to human AF9; P42568; AlphaScreen, biotin-AF4 peptide binding to FLAG-AF9; inhibition, % at 10 µM; 350,000 compounds, 0.47% hits; AID 651704;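 active = every replicate reaching a set inhibition limit, whatever the replicate mean, cut at about 25% in these data; inconclusive = mean inhibition reaches that limit but some replicates miss it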;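 note: 0% = plate neutral control median and 100% = total signal loss; the record names both 10 and 1 µM as test concentration; the first replicate is given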
Target sequence (P42568 whole entry, looked up): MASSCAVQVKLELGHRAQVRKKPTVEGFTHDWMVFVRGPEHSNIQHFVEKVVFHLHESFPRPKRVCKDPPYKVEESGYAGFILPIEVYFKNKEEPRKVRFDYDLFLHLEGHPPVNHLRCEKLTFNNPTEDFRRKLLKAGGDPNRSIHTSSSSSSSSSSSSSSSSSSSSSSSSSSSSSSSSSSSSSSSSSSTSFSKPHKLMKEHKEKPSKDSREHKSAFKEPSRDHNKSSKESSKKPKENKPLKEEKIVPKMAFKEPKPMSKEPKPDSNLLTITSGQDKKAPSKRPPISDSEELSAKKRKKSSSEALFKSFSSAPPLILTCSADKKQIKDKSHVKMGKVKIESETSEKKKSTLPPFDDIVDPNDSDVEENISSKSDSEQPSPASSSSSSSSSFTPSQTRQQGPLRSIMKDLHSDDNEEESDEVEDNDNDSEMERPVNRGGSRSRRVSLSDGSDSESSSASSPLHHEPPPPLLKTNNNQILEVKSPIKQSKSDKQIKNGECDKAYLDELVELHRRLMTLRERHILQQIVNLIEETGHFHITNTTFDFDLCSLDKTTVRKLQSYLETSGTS
Calb FLC: affects C. albicans growth with fluconazole; AID 1979; growth inhibition, % (no concentration beside the values); 300,000 compounds, 0.57% hits; C. albicans CaCi-2 (fluconazole-resistant clinical isolate) + fluconazole, Alamar Blue growth, 48 h;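 active = most replicates above 75%; inconclusive = exactly half above 75%; inactive = most below 75%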;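 note: all wells also contain fluconazole at 8 µg/ml as a sub-toxic cotreatment; 0% = median of DMSO wells and 100% = median of geldanamycin control wells; wells of about 8 µL received 7.5 nL stock; the first replicate is given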
Ecoli rRNA inh OD600: second read-out of Ecoli rRNA inh, no call of its own (marks repeat the call); OD600 change, %; measured here: OD600 growth;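 optical density of the mix in the first replicate; 0 = DMSO median and -100 = no signal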
Ecoli rRNA inh RFP: recorded beside Ecoli rRNA inh, whose call it bears; RFP signal change, %; measured here: RFP humanized mutant strains;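 first replicate; 0 = DMSO median and -100 = no signal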
* = called active by the depositor; i = inactive; ? = inconclusive; . = no result given; + = active, no number.

molecule	T cruzi repl	ALR H2O2 inh	RanGTP-Imp inh	Ecoli rRNA inh	Ecoli rRNA inh OD600	Ecoli rRNA inh RFP	FGF22 binding	Beta apoptosis	AF4-AF9 inh	Calb FLC
C=CCN1C(=O)NC(=O)/C(=C/c2ccc(OCC(=O)Nc3ccc(C)cc3)cc2)C1=O	13	-25	-0.1	13	-4	2.9	i	-1	0.2	-16
NC(CC(=O)O)C1CCCCC1 (configuration not stated)	-13	-11	5.5	.	.	.	.	-3	.	4
CN1CCN(/N=C/c2c[nH]c3ccccc23)CC1	5	79*	5.3	21	-3	0.6	i	-3	-2.8	1
COc1ccc(NC(=S)NC(NC(=O)CF)C(Cl)(Cl)Cl)c([N+](=O)[O-])c1 (configuration not stated)	8	-3	0.3	.	.	.	.	-7	.	-2
O=c1c2cc(Cl)cc(Cl)c2nc(CN2CCOCC2)n1-c1ccccc1F	20	.	2.7	.	.	.	.	0	.	14
CC/C(=N\N1CCCCCC1)c1c(O)n(-c2ccc(C)cc2)c(=O)[nH]c1=O	4	.	-1.1	.	.	.	.	-2	.	13
CC(=O)c1ccc(NC2=NCCCS2)cc1	11	4	-2.0	3	10	0.4	i	-2	8.5	-5
CCN(CC)C(=O)c1ccc(NC(=O)CSc2nnnn2-c2cc(OC)ccc2OC)cc1	11	-5	0.8	.	.	.	.	0	.	20
COC(=O)C1=C(c2ccc(-c3ccccc3)c(F)c2)C[C@@H]2CC[C@H]1N2C(=O)NCc1cc(C)oc1C(F)(F)F	.	2	.	10	9	-1.9	i	20	0.0	.
CCCCn1c(O)c(C(C)=NCCc2c[nH]c3ccccc23)c(=O)[nH]c1=O	23	3	3.9	-6	-2	2.7	i	-21	-1.1	-5
CCOC(=O)C1=C(N)OC2=C(C(=O)CCC2)C12C(=O)N1c3c(ccc(C)c32)C(C)=CC1(C)C (configuration not stated)	13	-13	5.6	.	.	.	.	1	.	25
O=C(c1cc2cc(Br)ccc2[nH]1)N1CCC2(CC1)OCCO2	1	72	2.4	-5	-11	-1.1	i	-2	0.7	8
O=c1c2ccccc2[nH]c(=S)n1-c1ccc2c(c1)OCCO2	-16	-5	0.9	7	7	-0.7	i	-1	-3.8	-4
CCOc1cccc(OCC)c2c(C)[n+](CC3CCCO3)c(C)c1-2 (configuration not stated)	1	-5	-15	.	.	.	.	.	.	3
NCCc1c[nH]c2ccc(F)cc12	-11	-11	-2.2	.	.	.	.	-7	-0.1	14
CCCCN=Cc1c(O)n(-c2c(C)cc(C)cc2C)c(=O)[nH]c1=O	-11	-11	0.4	.	.	.	.	-3	.	?
CN(C)C(=O)Oc1ccc2ccccc2c1Cl	-9	-23	-0.9	.	.	.	.	-6	.	-22
Cc1ccccc1-n1c(O)c(/C=N/NC(=O)c2ccccc2O)c(=O)[nH]c1=S	0	.	4.9	-11	-2	0.4	+	-2	8.3	-23
CCCCCCCCC(=O)NCc1ccc(O)c(OC)c1	.	35	.	10	-19	-2.8	i	-8	-2.9	.
CCCCC/C(=N\O)c1c[nH]c2ccccc12	-6	48	1.0	.	.	.	.	.	.	-25
COc1ccccc1N1CCN(Cc2cnc(-c3ccccc3)[nH]2)CC1	-2	3	0.3	6	3	-0.8	i	-2	1.0	-4
CC(C)n1c(=O)c(C=Nc2cccc([N+](=O)[O-])c2)c(O)n(CCc2ccccc2)c1=O	0	0	-1.4	2	7	-0.9	i	-11	-5.2	5
CCCNC(=O)c1c(N)n(Cc2ccco2)c2nc3ccccc3nc12	4	0	93*	.	.	.	.	-12	.	-26
C=CCn1c(O)c(C(CC)=NCCN2CCN(C(=S)NC)CC2)c(=O)[nH]c1=O	3	.	7.0	12	10	5.1	i	-1	-7.2	19
CN1CCN(c2ncnc3nc[nH]c23)CC1	-3	2	-3.1	22	14	1.8	i	-2	-2.9	5
CCCCn1c(=O)c(C(=O)Nc2nnc(C(C)C)s2)c(O)c2ccccc21	-2	-7	?	.	.	.	.	1	.	23
Cc1ccc(-c2cc(-c3ccccc3)cc(-c3ccccc3)[n+]2-c2ccccc2)cc1	49	.	2.8	-56	-82	-33	i	121*	9.2	86*
CCN(CC)c1ccc(N=Cc2c(O)[nH]c(=O)[nH]c2=O)cc1	15	35	-12	0	1	0.9	i	17	-6.9	6
COc1cc(/C=C2\C(=O)NC(=O)N(c3ccccc3)C2=O)cc(OC)c1OC	-6	6	3.8	.	.	.	.	-11	.	-3
CC12CN3CCN(C1)CC(C)(C3)C2=NO	-13	0	1.5	26	15	2.0	.	-1	.	16
Cc1ccc(S(=O)(=O)NC(Cc2cnc[nH]2)C(=O)O)cc1 (configuration not stated)	-8	-3	5.9	.	.	.	i	0	-1.9	-2
C/C(O)=C(\C#N)C(=O)Nc1cc(Br)ccc1Br	.	97*	.	-16	-19	4.0	i	-5	1.7	.
CC(C)(C)P(=O)(N1CCOCC1)N1CCOCC1	-5	-4	2.0	9	4	0.5	i	-11	0.4	-4
CN1CSC(=S)N(C)C1	-23	-7	-0.1	.	.	.	.	-6	.	2
CCCNC(=O)Cn1cnc2sc(C(=O)N3CCC4(CC3)OCCO4)c(C)c2c1=O	-20	-1	-3.0	6	10	-0.4	i	-3	-2.9	-1
Nc1ccccc1C(=O)OCc1ccc([N+](=O)[O-])cc1	-14	-2	-0.5	11	13	-1.1	i	-5	1.2	4
CC(=NCCCN1CCCCC1)c1c(O)n(Cc2ccccc2)c(=O)[nH]c1=O	-10	0	?	.	.	.	.	1	.	7
Cc1cc(/C=C2\C(=O)NC(=O)N(Cc3ccccc3)C2=O)c(C)n1-c1ccc(Cl)c(C(=O)O)c1	-25	70	9.0	21	13	9.4	.	-18	-1.4	0
O=C(CCCn1c(=O)[nH]c2cc(Cl)ccc2c1=O)N1CCC2(CC1)OCCO2	1	-1	-3.1	-6	4	0.4	i	-1	1.1	-7
COC(=O)C1=C(c2cc3ccccc3o2)C[C@@H]2CC[C@H]1N2C(=O)N1CCCCC1	14	-9	-5.1	.	.	.	.	9	.	6
O=C(c1cccs1)c1cn(Cc2ccccc2Cl)c2ccccc12	26	-28	-2.0	.	.	.	.	-4	.	-2
Cc1ccc(N2C(=O)NC(=O)/C(=C\c3cccn3C(C)(C)C)C2=O)cc1	-15	54	-3.0	10	12	-0.3	i	-3	-1.3	-6
CC(C)c1ccc(N2C(=O)NC(=O)/C(=C\C=C\c3ccco3)C2=O)cc1	-6	19	1.0	20	26	24	i	-18	0.1	-1
O=C(c1csc2c1CCCCC2)N1CCC2(CC1)OCCO2	-6	-2	0.6	0	0	5.1	i	0	1.3	11
COC(=O)C1=C(c2ccc(S(C)(=O)=O)cc2)C[C@@H]2CC[C@H]1N2C(=O)NCc1ccc(C(F)(F)F)cc1	4	-3	1.3	.	.	.	.	-6	.	-5
COc1ccc2c(c1OC)CN1CCc3cc4c(cc3C1C2)OCO4 (configuration not stated)	58*	11	-0.9	-1	-3	0.7	i	46	0.2	-14
N#CC1=C(N)Oc2cc(O)ccc2C1c1ccc2c(c1)OCO2 (configuration not stated)	8	26	67*	-7	-15	-1.7	i	3	-1.1	2
CCCCCn1c(N)c(C(=O)NCc2cccs2)c2nc3ccccc3nc21	21	1	56*	.	.	.	.	-16	.	3
CSC1=NP(=S)(SC)N2CCCC2=C1C#N (configuration not stated)	-13	0	2.7	.	.	.	.	0	.	9
COc1ccc2c(c1)c(CCN)c(C)n2Cc1ccccc1	9	12	-58	-11	-8	2.6	i	-2	33*	1

Other records follow:
molecule	T cruzi repl	ALR H2O2 inh	RanGTP-Imp inh	Ecoli rRNA inh	Ecoli rRNA inh OD600	Ecoli rRNA inh RFP	FGF22 binding	Beta apoptosis	AF4-AF9 inh	Calb FLC
Cc1ccc(C(=O)NC2CC3CCC(C2)N3)cc1 (configuration not stated)	-11	-6	-0.5	14	8	1.8	i	-7	0.6	3
COc1cc2c(cc1OC)-c1c(OC)c(OC)c(OC)c3ccnc(c13)C2=O	20	.	-39	.	.	.	.	89*	.	29
O=C(Nc1ccccc1)N1CC2CC(C1)c1cccc(=O)n1C2 (configuration not stated)	-7	.	8.1	3	10	3.3	i	-3	-2.0	-9
O=[N+]([O-])c1ccc(N2CCCC2)c(F)c1Br	-9	-1	1.5	-26	-30	4.8	.	24	5.7	?
CC(=O)Cc1ccc(OC(C)C)cc1	-3	-21	-2.9	10	7	1.8	i	3	0.3	-4
COc1ccc(S(=O)(=O)NC(CC(=O)N2CCC3(CC2)OCCO3)c2ccco2)cc1 (configuration not stated)	-6	14	1.4	.	.	.	.	-4	.	3
COc1ccc(-[n+]2c(-c3ccccc3)cc(-c3ccccc3)cc2-c2ccccc2)cc1	29	13	3.2	-57	-80	-35	i	111*	7.7	108*
O=C(c1ccc2c(c1)N(Cc1ccc(F)cc1)CCS2)N1CCC2(CC1)OCCO2	12	82*	-2.5	-31	-54	6.9	i	-1	1.8	4
NC(C(=O)O)c1cc(=O)[nH]o1 (configuration not stated)	.	-5	.	12	12	1.6	i	-5	-1.8	.
O=C(CNC(=O)OCc1ccccc1)NCC(=O)Nc1ccc(Br)cc1C(=O)c1ccccc1	14	-50	-0.2	.	.	.	.	-1	.	7
O=C(Nc1ccc(Cl)cc1)N1CC2CC(C1)c1cccc(=O)n1C2 (configuration not stated)	-4	-1	5.8	-16	-5	-2.0	i	-7	-1.6	-7
COC(=O)C1=C(c2ccccc2)C[C@@H]2CC[C@H]1N2C(=O)NCCO	-10	-15	1.1	5	11	-0.2	i	-11	-0.7	-5
CSc1ncc(/C=C2/C(=O)NC(=O)N(C3CCCCC3)C2=O)cn1	-3	2	1.4	.	.	.	.	-6	.	10
c1ccc2cc(C3N4CCCN34)ccc2c1 (configuration not stated)	-6	-25	-4.5	8	-1	-8.1	i	3	1.9	-15
Cc1cc(C)c2c(ccc3cccc[n+]32)c1	13	-4	0.4	-16	-15	0.8	i	82*	1.9	0
CC(=O)OC1(c2ccccc2)CCN(C)CC1(C)C (configuration not stated)	-3	-15	0.6	11	20	-5.2	i	-4	-0.2	12
COC(=O)C1=C(c2ccc(-c3ccccc3)c(F)c2)C[C@@H]2CC[C@H]1N2C(=O)NCCc1ccccc1	.	-1	.	1	8	-3.5	i	18	-21	.
O=C(c1ccccc1F)c1cn(Cc2ccccc2)c2ccccc12	3	4	1.0	.	.	.	.	-1	.	-10
CC(=O)N(C1=NCCCS1)c1ccccc1Cl	-10	-6	3.5	3	-6	-3.4	i	-8	0.4	13
CNCC(C)c1ccccc1 (configuration not stated)	-8	4	-0.7	-1	2	-2.2	i	-2	-0.1	-18
O=C1C2(c3ccccc3)CN3CN(C2)CC1(c1ccccc1)C3	-16	-5	-1.9	11	11	-1.8	.	-12	.	5

Screens: PubChem BioAssay, Broad Institute

Some of the compounds tested, so the mix of outcomes need not match the whole.
